S aureus helic – blocks Staphylococcus aureus DNA helicase; purified S. aureus helicase, fluorescence unwinding assay; about half of the hits fall short of the stated cut; inhibition, %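 (tested at about 80 µM)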; actives 0.05% (n = 120,000); AID 485395;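 active = both duplicates at 50% or more, or one of them with a favoured structure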;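 also: 0% = mean of negative control wells and 100% = mean of positive control wells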
MgrA-DNA mod – alters Staphylococcus aureus MgrA binding to DNA; fluorescence polarization; inhibition, %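 (about 10 µg/mL by stock and volumes)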; actives 0.13% (n = 84,000); AID 602314;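 active = above 50% in either of two replicates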;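 also: 0% = protein plus DNA without compound and 100% = DNA alone without protein; higher means less MgrA bound to DNA so lower polarization; one replicate is shown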
Active calls of the source: *; nt = no result given. Only part of the results is shown. The share of hits here may be higher or lower than overall.

Order of results – S aureus helic, MgrA-DNA mod
O=C(c1ccc2c(c1)sc1nc(-c3ccccc3)cn12)N1CCN(C(=O)c2ccco2)CC1
  7, nt
COCC(C)NC(=O)c1c(-c2ccccc2)noc1C (stereo not drawn)
  0, 1.1
CN1CCC(n2nccc2NC(=O)c2cccnc2Sc2ccccc2)CC1
  -4, nt
O=C(c1ccc(Cl)cc1)N1CCSC1=S
  nt, 1.9
Cc1ccc(Cl)cc1NC(=S)N(N)CCO
  nt, -1.9
Cc1ccccc1NS(=O)(=O)c1ccc2c(c1)CCN2C(=O)C1CCC1
  6, 0.2
COc1ccc(C(=O)[C@@H]2[C@@H](c3cccs3)C(C#N)(C#N)[C@H]3C=Cc4ccccc4N23)cc1
  -81, nt
CC1(C)C(=O)NC(=O)N1CN1C(=O)NC(=O)C1(C)C
  3, -1.1
COCc1cc(C)c2c(N)c(C#N)sc2n1
  0, nt
CC1CC(C(O)c2ccccn2)C(=O)C(C(O)c2ccccn2)C1 (stereo not drawn)
  -2, nt
CCC(C)c1ccc(NC(=O)C2CC(=O)N(c3ccc(C)cc3)C2)cc1 (stereo not drawn)
  4, 0.8
CCOc1ccc(NC(=O)CN2C(=O)CS/C2=C\C#N)cc1
  12, nt
CC(C)NS(=O)(=O)c1ccc(OCC(=O)N2CCCCC2)cc1
  -2, 0.0
Cc1cccc2c1OC(=O)CC2c1ccccc1 (stereo not drawn)
  5, nt
COc1cc(C(=O)N2C3=C(CCCC3)C(=O)NC23CCCCC3)cc(OC)c1OC
  9, nt
COC(=O)NC1Sc2ccccc2N=C1c1ccccc1 (stereo not drawn)
  16, nt
Cc1cc2nc(NCCCN3CCCC3=O)c3ccccc3n2n1
  -5, nt
CCOC(=O)/C(C#N)=C\c1ccccc1N1CCN(C)CC1
  -27, nt
CNC(=O)Nc1cccc(-c2cc(-c3c(Cl)cccc3Cl)no2)c1
  nt, 0.3
Cc1ccccc1-c1nc(CS(=O)(=O)CC(=O)NCCN2CCOCC2)c(C)o1
  2, nt
Cc1ccc(C(=O)OCC(=O)Nc2ccc(Cl)cn2)cc1S(=O)(=O)N1CCOCC1
  -22, nt
CNC(=O)C12CCC(C)(C(=O)C1)C2(C)C (stereo not drawn)
  -3, -0.2
CCOCC(=O)OCc1ccc(COC(=O)COCC)cc1
  -9, nt
CN1CCc2c(sc3nc(NC(=O)c4ccc(OC(F)(F)F)cc4)sc(=O)c23)C1
  nt, -2.8
COc1ccc(S(=O)(=O)n2ccnc2C)cc1
  18, nt
COCCN1C(=O)/C(=C/c2c(N(C)C)nc3ccccn3c2=O)SC1=S
  -87, nt
O=C(CN1CCN(S(=O)(=O)c2ccccc2)CC1)Nc1ccc(N2CCOCC2)cc1
  -12, nt
O=C(O)CCNC(=S)Nc1ccc(Cl)c(Cl)c1
  nt, 1.1
O=C1COc2ccc(-c3csc(=Nc4ccc(F)cc4)n3/N=C/c3ccc(O)c(O)c3)cc2N1
  17, nt
COc1ccccc1N1C(=O)CCC1(C)C(=O)NCc1ccccc1 (stereo not drawn)
  -16, nt

More entries follow:
Order of results – S aureus helic, MgrA-DNA mod
COc1ccc(N2CCOCC2)cc1
  -1, 0.0
COC(=O)c1sc(C(C)(C)C)cc1CS(=O)(=O)c1ccc(C)cc1
  nt, 7.9
Cc1sc2nc(SCc3nnc(-c4cccs4)o3)n(C3CCCC3)c(=O)c2c1C
  -2, nt
O=c1ccn2c(n1)OC1[C@@H](O)[C@@H](CO)O[C@H]12 (stereo partly drawn)
  -10, nt
CCCN(CC(=O)Nc1cc(Cl)ccc1Cl)C(=O)CSc1nnc(-c2ccc(OC)cc2)o1
  1, nt
Cc1ccc(N2CCN(S(=O)(=O)N3CCOCC3)CC2)cc1Cl
  0, -1.1
CC1(C)CC(=O)C2=C(C1)OC1=C(C(=O)CC(C)(C)C1)C2c1cn(Cc2ccc(Cl)cc2Cl)nc1-c1ccccc1
  nt, -0.5
O=C1CSc2ccc(C(=O)NCc3ccccn3)cc2N1
  -4, nt
CCc1ccc(NC(=O)CC2C(=O)N(c3cccc(C)c3)C(=O)N2C2CC2)cc1 (stereo not drawn)
  14, -5.2
O=C(NN1C(=O)C2C3C=CC(C3)C2C1=O)c1ccccc1 (stereo not drawn)
  18, 1.1
O=C(c1nn2c(C(F)(F)F)cc(-c3cccs3)nc2c1Br)N1CCCC1
  nt, -1.3
COc1cc(OC)cc(-c2nnc(SCCOc3cc(C)ccc3C)o2)c1
  -10, nt
N#Cc1ccc(CSc2nccc(=O)[nH]2)cc1
  1, nt
COc1cccc(NC(N)=S)c1
  nt, -0.6
O=C(Cc1csc(-c2ccccc2)n1)N1CCCC1c1cccs1 (stereo not drawn)
  6, nt
O=C(CCN1c2ccccc2Sc2ccccc21)N1CCN(C(=O)c2ccco2)CC1
  -4, nt
Cc1cc(C)nc(-n2nc(C)cc2NC(=O)C(C)C)n1
  -1, 0.2
CC1(C)CC(=O)C2=C(C1)OC1=C(C(=O)CC(C)(C)C1)C2c1ccc(OCC(=O)O)cc1
  nt, 0.5
CCOc1ccccc1CNC(=O)CCC(=O)N1CC(C)Oc2ccc(Cl)cc21 (stereo not drawn)
  0, 0.5
CC(C)NC(=O)CC1(C(=O)O)CCCC1
  -13, nt
CC(C)Cc1cc(C(=O)O)n[nH]1
  4, nt
O=C1OC2(C(=O)c3ccccc3C2=O)/C(=C(\O)c2ccc(F)cc2)C1=O
  5, 1.1
N#CCC(=O)Nc1ccccc1
  nt, 2.1
CC(NC(=O)c1ccccc1)C1COc2ccccc2O1 (stereo not drawn)
  13, -1.5
O=C(Nc1ccccc1)Nc1ccc2c(c1)nc1n2CCN(Cc2ccccc2)C1
  12, nt
O=C(Nc1ccccc1)N1CCN(c2ccccc2)CC1
  -4, nt
Cc1occc1C(=O)Nc1ccc(F)c(F)c1
  9, -0.5
N#CC(C(=O)O)C1C(=O)Nc2ccccc21 (stereo not drawn)
  -18, -0.4
Cc1cc(C(=O)COC(=O)c2ccccc2NS(=O)(=O)c2ccc3c(c2)OCCO3)c(C)n1C
  17, nt
CCC(=O)Nc1nc2ccccc2s1
  -14, nt

A different layout for 2 compounds above:
SMILES | S aureus helic | MgrA-DNA mod
CCc1ccc(NC(=O)CC2C(=O)N(c3cccc(C)c3)C(=O)N2C2CC2)cc1 (stereo not drawn) | 14 | -5.2
O=C(NN1C(=O)C2C3C=CC(C3)C2C1=O)c1ccccc1 (stereo not drawn) | 18 | 1.1

Next section
Order of results – S aureus helic, MgrA-DNA mod
CC(C)(C)S(=O)(=O)c1ccc2ccccc2c1
  1, 2.0
C#CC1(O)CCCCCCCCCCC1
  8, -0.8
CC(=O)N1N=C(c2c(-c3ccccc3)c3cc(Cl)ccc3[nH]c2=O)CC1c1nc2ccccc2n1C(C)=O (stereo not drawn)
  nt, -1.7
CCCc1cc(=O)oc2cc(OCc3ccccc3)ccc12
  11, -1.1
CNc1cc(C)nc(-c2csc(C)n2)n1
  nt, 0.4
Cc1c(C(=O)O)sc2nc(CSc3nnc(-c4ccc(F)cc4)n3C)[nH]c(=O)c12
  6, nt
Cc1[nH]nc2c1C(c1ccccc1)C(C#N)=C(N)O2 (stereo not drawn)
  nt, 0.1
CCN1C=C(C(=O)OC)C(c2ccc(Cl)cc2)C(C(=O)OC)=C1
  -11, -1.1
CC(=O)N1CCN(c2ccc(NC(=O)COc3cc(C)c(Cl)c(C)c3)cc2)CC1
  -16, 1.7
FC(F)(F)c1cccc(-c2csnn2)c1
  nt, 0.6
CCOc1ccc2c(=O)c(-c3ccccc3)coc2c1
  1, nt
Cc1ccn2c(NC(=O)c3ccc(C)c(C)c3)c(-c3cccs3)nc2c1
  8, 1.0
CCCCn1c(-c2ccc(OC)cc2)nc2ccccc21
  -2, 1.1
Cc1cc(C)n(C)c(=O)c1C(=O)O
  1, -5.1
CCCc1nc2ccccc2n1CC(=O)Nc1ccc(S(=O)(=O)N(C)C)cc1
  -12, nt
COC(=O)C1CN(C(=O)COc2ccccc2)c2ccccc2O1 (stereo not drawn)
  5, -0.2
CN(CC(=O)Nc1ccc(F)cc1)C(=O)CCc1ccccc1
  9, nt
CN=c1scc(-c2ccc(F)cc2)n1/N=C/c1ccc(C)o1
  3, nt
c1cnc(Sc2nc3ccccc3s2)nc1
  -12, nt
CCOC(=O)N1CCN(c2ncnc3c2cnn3-c2ccccc2)CC1
  11, -1.3
COc1ccc(-n2c(SC)nnc2-c2c[nH]c3ccccc23)cc1
  20, nt
O=C(NCC1CCCO1)c1ccc(COCC(F)(F)C(F)F)cc1 (stereo not drawn)
  3, nt
CC(=O)Nc1ccc(C(=O)OCC(=O)N2CCCCC2C)cc1 (stereo not drawn)
  8, nt
CN(C)c1cccc(C(=O)NN2C(=O)NC3(CCCCC3)C2=O)c1
  -11, nt
C=CCn1c(=O)c2ccccc2n2c(=S)[nH]nc12
  -4, nt
COc1ccc2c(Sc3ccc(Cl)cc3)c(C(=O)N(C)Cc3ccccc3)[nH]c2c1
  9, 2.5
CCOc1cccc(CNCCN2CCOCC2)c1
  7, -2.5
CC(=O)N1Cc2ccccc2CC1C(=O)NCc1ccccc1F (stereo not drawn)
  -8, nt
C=C/C=C1/OCO/C1=C/CC(=O)N=c1c(C#N)cc2c(=O)n3cccc(C)c3nc2n1CCCCC
  2, nt
CCN(Cc1ccccc1)S(=O)(=O)c1cc(Cl)ccc1Cl
  4, -1.1

Arranged by value in S aureus helic (descending): seven from the list above.
Order of results – S aureus helic, MgrA-DNA mod
CC(NC(=O)c1ccccc1)C1COc2ccccc2O1 (stereo not drawn)
  13, -1.5
O=C(c1ccc2c(c1)sc1nc(-c3ccccc3)cn12)N1CCN(C(=O)c2ccco2)CC1
  7, nt
Cc1ccccc1NS(=O)(=O)c1ccc2c(c1)CCN2C(=O)C1CCC1
  6, 0.2
CCCN(CC(=O)Nc1cc(Cl)ccc1Cl)C(=O)CSc1nnc(-c2ccc(OC)cc2)o1
  1, nt
COCc1cc(C)c2c(N)c(C#N)sc2n1
  0, nt
COc1ccc(N2CCOCC2)cc1
  -1, 0.0
COc1cc(OC)cc(-c2nnc(SCCOc3cc(C)ccc3C)o2)c1
  -10, nt

Going on with the list.
Order of results – S aureus helic, MgrA-DNA mod
CSc1nc(N)n(-c2ncc(C(F)(F)F)cc2Cl)n1
  nt, -0.4
Cc1ccc(CN2CCC(NC(=O)c3ccccc3)CC2)cc1
  nt, -1.4
Cc1cc(NS(=O)(=O)c2ccc3c(c2)CC(=O)N3)ccc1Br
  -2, 8.8
Cn1ccccc1=S
  -2, nt
O/N=C1\CCCc2c1nc(-c1ccccc1Cl)n2O
  -2, -4.2
O=C(Nc1ccccc1O)c1cccc(S(=O)(=O)Nc2ccccc2O)c1
  1, 3.0
O=C(O)c1c2c(nc3ccccc13)-c1ccccc1CC2
  -3, 1.1
O=C(Cc1ccc(F)cc1)Nc1nncs1
  6, -1.4
Cc1ccc2oc(=O)n(CC/C(N)=N/OC(=O)c3ccccc3)c2c1
  -11, nt
S=C(NCC1CCCO1)NC1CC1 (stereo not drawn)
  10, -0.2
CCNC(=S)N1CCn2cccc2C1c1ccc(OC)cc1 (stereo not drawn)
  3, nt
O=C1N=c2ccc([N+](=O)[O-])cc2=C1c1sc(=S)n(Cc2ccc(Cl)cc2)c1O
  nt, 0.8
COc1ccc(S(=O)(=O)NC(C)C(N)=O)cc1 (stereo not drawn)
  0, 0.2
COC(=O)c1cc2sccc2n1C(C)C(=O)N(C)c1ccc(F)cc1 (stereo not drawn)
  2, -0.6
CCN1C(=S)SC(=O)C1=C1C=C(C)N(Cc2ccco2)C(C)=C1
  -25, nt
CN(C)CCNC(=O)c1cc(-c2ccccc2)nc2ccccc12
  43, nt
Cc1ccc2nc(S/C=C/C(=O)c3ccccc3)[nH]c2c1
  nt, 3.6
COc1cc(NS(=O)(=O)c2cc(C)c(Cl)cc2C)c(C(=O)O)cc1OC
  -4, nt
COc1ccc(C(Nc2ncnc3c2ncn3C2CC=C(CO)CC2)(c2ccccc2)c2ccccc2)cc1 (stereo not drawn)
  nt, 1.8
C=CCn1c(CSc2nc(N)cc(N)n2)n[nH]c1=S
  10, 1.2
S=C(NCCSc1ccc(Cl)cc1)Nc1cccc(Cl)c1
  12, -1.2
CC(C)(C)C(=O)Nc1scc(-c2cccs2)c1C(=O)O
  4, -8.7
CC(C)Sc1nnc(NC(=O)c2cccs2)s1
  -6, nt
CN(C(=O)CSc1n[nH]c(N)n1)C1CCCCC1
  -5, nt
COc1ccccc1C1(O)CCN(Cc2ccccc2)CC1
  nt, -1.8
COC(=O)C1=C(C)NC(=O)N(C(C)=O)C1c1ccc(OC)cc1 (stereo not drawn)
  38, nt
COc1ccc(OCCn2c(=O)n(CCOc3ccc(OC)cc3)n(-c3ccccc3)c2=O)cc1
  -3, nt
Clc1ccc2oc(-c3ccccc3)c/c(=N\c3nccs3)c2c1
  2, -0.6
N#Cc1c(N)nc2c(c1-c1ccccc1)CCCC2
  -8, 3.0
CN(S(=O)(=O)c1ccc2c(c1)OCCO2)S(=O)(=O)c1cccs1
  12, nt
Cn1c(=S)n(CN2CCC3(CC2)OCCO3)c2ccccc21
  8, -0.2
O=C(O)COCC(=O)Nc1nc(SCc2ccc(Cl)cc2)n[nH]1
  -2, nt
Cc1ccc(CN2C(=O)NC(c3ccc(F)cc3)C2=O)cc1 (stereo not drawn)
  9, nt

Screening data deposited in PubChem by ICCB-Longwood Screening Facility, Harvard Medical School.
